ALR inh: human ALR oxidase inhibition via reduced H2O2. inhibition, % (test concentration not listed). purified ALR, DTT oxidation, H2O2 HRP-luminol luminescence. 290,000 tested, 3.8% active. P55789. AID 485317;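 active means mean and each replicate at 75% or more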;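 further: stock transfer was 7.5 nL into about 7.5 µL; 0% = neutral wells and 100% = wells with inactivated enzyme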
HNF4A DNA FP: change in binding of human HNF4 alpha to DNA. activity change, % at 10 µM. 360,000 tested, 0.3% active. AID 1224865. HNF4a-FITC DNA binding, fluorescence polarization, 1 h; in the data active means activity change above about 30%, passing the limit was not always enough;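 further: controls were the assay level and a saturating level of protein; the project sought stronger binding though the title names inhibitors; some compounds called inactive have numbers as strong as hits; positive values seem to mean higher polarization but the record does not say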
Target sequence (P41235 whole entry, looked up): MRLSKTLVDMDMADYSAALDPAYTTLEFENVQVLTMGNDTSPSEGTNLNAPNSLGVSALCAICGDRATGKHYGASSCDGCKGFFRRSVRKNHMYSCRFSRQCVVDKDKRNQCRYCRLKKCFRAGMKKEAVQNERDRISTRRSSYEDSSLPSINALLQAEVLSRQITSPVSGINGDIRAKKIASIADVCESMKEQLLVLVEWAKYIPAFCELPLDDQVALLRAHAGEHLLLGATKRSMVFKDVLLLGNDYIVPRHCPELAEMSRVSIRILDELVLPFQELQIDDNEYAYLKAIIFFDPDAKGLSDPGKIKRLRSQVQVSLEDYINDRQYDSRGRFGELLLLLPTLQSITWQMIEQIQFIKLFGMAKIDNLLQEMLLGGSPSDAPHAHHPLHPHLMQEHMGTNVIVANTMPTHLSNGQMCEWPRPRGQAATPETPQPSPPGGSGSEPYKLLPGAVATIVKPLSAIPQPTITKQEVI
B2AR ag: human beta-2 adrenergic receptor agonism by FAP; P07550; Am2.2-beta2AR cells, FAP receptor internalization, flow cytometry; reference of the scale not given here; response, % (concentration not given with the values); 340,000 tested, 0.43% active; AID 504454;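 active means response above a set limit, near 3 SD of response in nonfluorescent compounds, cut at about 42% in these data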;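 further: stock transfer was 100 nL into about 11 µL; a reference agonist was the positive control; negative values mostly stem from fluorescent compounds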
Target sequence (P07550 whole entry, looked up): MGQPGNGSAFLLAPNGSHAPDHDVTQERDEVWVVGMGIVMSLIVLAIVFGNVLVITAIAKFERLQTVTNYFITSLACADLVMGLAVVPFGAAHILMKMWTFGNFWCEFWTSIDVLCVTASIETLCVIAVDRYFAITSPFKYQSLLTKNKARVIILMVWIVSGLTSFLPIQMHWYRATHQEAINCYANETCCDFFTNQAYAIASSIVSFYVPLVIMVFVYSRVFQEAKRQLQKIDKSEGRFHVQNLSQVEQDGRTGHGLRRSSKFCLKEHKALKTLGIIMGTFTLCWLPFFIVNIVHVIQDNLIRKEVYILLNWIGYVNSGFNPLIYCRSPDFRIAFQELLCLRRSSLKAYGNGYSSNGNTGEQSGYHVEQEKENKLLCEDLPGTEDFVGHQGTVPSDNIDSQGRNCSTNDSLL
LANA-H2B inh: blocks KSHV LANA binding to histone H2A/H2B; inhibition, % (concentration not given with the values); cell-free LANA-H2A/H2B peptide, fluorescence polarization; 320,000 tested, 0.6% active; in the data active means inhibition mostly above about 10%, no sharp cut-off; inactive means mostly below about 6.7%;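 further: stock transfer was 7.5 nL into about 10 µL; 0% = median of vehicle wells and 100% = median of positive control wells; one replicate is shown; the record names a cut of 25% in any replicate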
E coli growth: E. coli growth inhibition; OD600 absorbance (concentration not given with the values); Escherichia coli growth, OD600, 23 h; stronger effect = lower value; 330,000 tested, 0.21% active;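 active means OD600 absorbance below the run mean of sample wells minus 3.6 SD, in any replicate, cut at about 0.56 in these data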;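 further: stock transfer was 300 nL into about 60 µL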
UCH37 inh: blocks the human deubiquitinase UCH37; Q9Y5K5; purified proteasome/UCH37, Ub-AMC cleavage fluorescence; inhibition, % (no concentration beside the values); 330,000 tested, 0.33% active; AID 588478;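 active means mean of two replicates above 20%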;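 further: 0% = compound-free wells with enzyme and 100% = wells lacking proteasome; stock transfer was 100 nL into about 20 µL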
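Schedule: 30 min plus 25 min, room temperature / Material: human UCH37 within purified proteasomes / Technique: AMC fluorescence intensity at 355/460 nm / Buffer or medium: pH 7.4 Tris-HCl (50 mM) with ovalbumin, ATP-MgCl2, DTT / Controls: wells without proteasome as full block, compound-free enzyme plus substrate as uninhibited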
FGF22 binding: FGF22 (human) thermal shift binding | recombinant FGF22 thermal shift, SYPRO orange fluorescence; percent of sucrose octasulfate shift, DMSO zero | calls only at 9.99 µM | 340,000 tested, 1.5% active;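 active means melting point raised past a set limit in the mean and every replicate; three in four hits are not shown here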
Target sequence (Q9HCT0 whole entry, looked up): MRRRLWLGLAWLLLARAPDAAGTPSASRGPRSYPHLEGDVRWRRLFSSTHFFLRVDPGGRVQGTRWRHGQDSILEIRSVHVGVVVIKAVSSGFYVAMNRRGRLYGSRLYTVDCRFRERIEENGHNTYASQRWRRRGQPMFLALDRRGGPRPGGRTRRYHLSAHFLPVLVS
* hit, by the source's call; i = inactive; . = not tested or not shown; + = active, no number.

SMILES	ALR inh	HNF4A DNA FP	B2AR ag	LANA-H2B inh	E coli growth	UCH37 inh	FGF22 binding
COc1ccc(N(CC(=O)NCc2ccc(F)cc2)C(=O)CCC(=O)Nc2ccccn2)cc1	0	3.9	-2	3.6	0.72	5.9	i
COc1ccc(N(CC(=O)NCCSC2CCCCC2)S(C)(=O)=O)c(OC)c1	20	-0.6	-1	-4.7	0.66	-1.1	i
O=C(CSc1nc2ccccc2c(=O)n1CC1CCCO1)Nc1ccc(F)cc1 (stereo unspecified)	.	3.2	-14	-0.8	0.63	3.2	i
Fc1ccc(NC(=S)N2CCSC2c2cccs2)cc1 (stereo unspecified)	-5	-2.4	1	2.9	0.7	0.7	i
CCOC(=O)CSc1nnc(C)c(=O)[nH]1	1	-0.8	3	4.7	0.68	4.0	.
O=C(COc1ccccc1Cl)Nc1cc(Cl)ccc1O	.	4.7	5	.	0.68	5.2	i
Cc1cccc(C(=O)OCC(=O)NC2CCCCCCC2)c1	0	-1.5	-9	-190	0.68	1.9	i
Cc1nnc(SCC(=O)Nc2nccs2)s1	-6	3.5	4	3.6	0.65	3.0	.
Cc1cc(N2CCN(C)CC2)ccc1NC(=O)c1cccc(S(=O)(=O)N2CCc3ccccc3C2)c1	-6	6.0	42*	-0.6	0.69	5.0	i
O=C(Cc1c[nH]c2ccccc12)N1CCN(S(=O)(=O)c2cccc(Cl)c2Cl)CC1	.	-1.6	4	-0.1	0.69	1.5	+
CC(O)CCc1nc2ccc(C(=O)O)cc2[nH]1 (stereo unspecified)	-5	-2.1	12	2.7	0.73	6.2	.
Cc1ccsc1C(=O)NNC(=O)CCN1CCN(c2ccccc2)CC1	94*	-0.9	-10	0.1	0.66	2.4	i
O=C(NCC(c1ccco1)N1CCCC1)c1ccc(S(=O)(=O)Nc2ccc(F)cc2)cc1 (stereo unspecified)	0	0.5	1	-0.1	0.68	5.1	i
CC(C)C[C@H](NC(=O)[C@H]1N2C(=O)c3ccccc3C2SC1(C)C)C(=O)N[C@@H](Cc1ccccc1)C(=O)O (stereo partly specified)	-2	0.5	10	2.2	0.75	5.9	i
Cc1cc(SCC(=O)N2CCCC2=O)nc2ccccc12	3	1.1	-19	1.3	0.72	4.2	i
COc1ccc(/C(N)=N/OC(=O)N2CCOCC2)cc1	.	-0.6	0	14*	.	.	i
Cc1ccccc1C(=O)Nc1cccc(C(=O)N/N=C/c2ccc3c(c2)OCO3)c1	-1	1.2	10	-6.9	.	.	i
CCOC(=O)c1cc(C#N)c(N2CCOCC2)nc1-c1ccccc1	-2	2.0	-3	-0.9	0.73	-30	i
COc1cc(C(=O)NC(C(=O)Nc2cccc(C(C)=O)c2)C(C)C)cc(OC)c1OC (stereo unspecified)	-2	0.5	-1	-0.9	0.69	0.0	i
COc1ccc(N2C(=O)C3C4c5ccccc5C(C=Nc5ccc(C)cc5C)(c5ccccc54)C3C2=O)cc1 (stereo unspecified)	-8	1.1	-2	-5.6	0.7	3.6	.
CCC(C)[C@H](NC(=O)NCc1ccccc1)C(=O)O (stereo partly specified)	2	2.5	0	-7.1	0.7	3.4	.
c1ccc(-c2csc(Nc3cccnc3)n2)cc1	23	3.9	-9	-2.2	0.68	9.0	i
CCNC(=S)N1CCC(NC(=O)c2ccco2)CC1	7	11	0	2.9	0.67	-1.7	i
CC(=O)Nc1cccc(C(=O)N(Cc2ccccc2)Cc2ccccc2)c1	3	4.5	-4	-0.3	0.66	1.6	i
Cc1cc2c(c(=O)n1Cc1ccco1)C(c1cccnc1)C(C#N)=C(N)O2 (stereo unspecified)	8	-7.5	10	0.5	0.68	0.0	.
O=C(c1ccc(F)cc1)N1CCN=C1c1ccccc1	-9	0.4	-3	0.5	0.65	3.2	.
COc1ccc(C2=NOC(C(=O)N3CCCCCC3)C2)cc1OC (stereo unspecified)	-13	0.6	3	-0.8	0.67	2.6	i
CCCn1c(C(C)Nc2nc(-c3ccc(Cl)c([N+](=O)[O-])c3)cs2)nc2ccccc21 (stereo unspecified)	-13	1.8	4	-0.5	0.73	1.2	i
CCN(Cc1ccncc1)Cc1ccc(Br)cc1	-3	5.6	-2	6.8	0.68	0.8	i
O=[N+]([O-])c1ccc(N2CCN(S(=O)(=O)c3cnc[nH]3)CC2)cc1	-2	0.4	5	-2.4	0.61	9.6	i
COC(=O)C(F)(F)Sc1c(C)[nH]c2ccccc12	99*	6.5	3	6.8	0.7	0.2	i
C=CCNc1sc(C(=O)c2ccccc2)c(N)c1-c1nc2ccccc2s1	-2	7.4	11	-0.5	0.73	4.8	.
COc1cscc1C(=O)O	-3	0.8	-5	3.6	0.68	2.5	i
COc1ccc(N2C(=O)NC(NC(=O)c3cccnc3)(C(F)(F)F)C2=O)cc1 (stereo unspecified)	-1	0.9	-289	2.2	0.59	-0.2	i
COCc1c(C(=O)N2CCN(CCOc3ccccc3)CC2)oc2ccccc12	-6	-2.1	-2	5.5	0.66	2.2	i
Oc1ccc(N=Nc2c(O)ccc3ccccc23)cc1	18	2.8	9	4.8	0.59	11	.

Entries shown so far that have two or more sulfur atoms:
SMILES	ALR inh	HNF4A DNA FP	B2AR ag	LANA-H2B inh	E coli growth	UCH37 inh	FGF22 binding
COc1ccc(N(CC(=O)NCCSC2CCCCC2)S(C)(=O)=O)c(OC)c1	20	-0.6	-1	-4.7	0.66	-1.1	i
Fc1ccc(NC(=S)N2CCSC2c2cccs2)cc1 (stereo unspecified)	-5	-2.4	1	2.9	0.7	0.7	i
Cc1nnc(SCC(=O)Nc2nccs2)s1	-6	3.5	4	3.6	0.65	3.0	.
C=CCNc1sc(C(=O)c2ccccc2)c(N)c1-c1nc2ccccc2s1	-2	7.4	11	-0.5	0.73	4.8	.

Later entries
SMILES	ALR inh	HNF4A DNA FP	B2AR ag	LANA-H2B inh	E coli growth	UCH37 inh	FGF22 binding
O=C(COc1ccc2ccc(=O)oc2c1)Nc1ccc(CN2CCOCC2)cc1	-9	2.6	-5	1.5	0.66	-11	i
O=C(CSc1nc(=O)n2ccccc2n1)NCc1ccccc1Cl	-8	2.8	-8	-2.0	0.66	-11	i
Cc1cccc(C)c1NC(=O)CN(C)C(=O)C1CC(=O)N(c2cccc3ccccc23)C1 (stereo unspecified)	.	-0.4	-5	.	0.67	-2.2	i
COc1ccc(OC)c(S(=O)(=O)NCCCN2CCOCC2)c1	-5	0.9	4	-1.4	0.68	2.2	i
COc1ccc(-c2nc(NC(=O)CSc3nnc4ccccn34)ns2)cc1	-7	.	.	0.0	0.75	-4.6	.
Cc1ccc(C)n1-c1ccc(C(=O)NCc2cccnc2)cc1	-2	0.8	-4	-4.7	0.72	2.8	.
Cn1c2ccccc2c2cnn(CC(=O)Nc3ccc(Cl)cc3)c(=O)c21	.	2.7	3	0.8	0.7	-6.7	i
COc1ccc(CCN2C(=S)N(c3ccc(Cl)cc3)C(=O)C2CC(N)=O)cc1OC (stereo unspecified)	1	1.8	7	-3.6	0.7	-0.5	i
Nn1c(Cc2ccc(Br)cc2)n[nH]c1=S	-23	-0.1	1	3.9	0.65	-1.3	i
O=C(O)C1=C[C@H](c2ccc3c(c2)OCO3)C[C@H](OCc2ccc(CO)cc2)O1	-1	1.8	-6	-5.0	.	1.8	i
Cc1cc[n+](C(C)C(=O)c2ccc(Cl)cc2)cc1 (stereo unspecified)	-10	-5.5	-2	4.4	0.6	4.6	i
CCOC(=O)C1CN(S(=O)(=O)c2cccc(C(F)(F)F)c2)c2cc(CC(=O)OC)ccc2O1 (stereo unspecified)	-4	-0.9	7	-4.0	0.69	5.3	.

Single records, from the list above. Values in the order: ALR inh	HNF4A DNA FP	B2AR ag	LANA-H2B inh	E coli growth	UCH37 inh	FGF22 binding
O=C(COc1ccc2ccc(=O)oc2c1)Nc1ccc(CN2CCOCC2)cc1 reads -9	2.6	-5	1.5	0.66	-11	i
COc1ccc(-c2nc(NC(=O)CSc3nnc4ccccn34)ns2)cc1 reads -7	.	.	0.0	0.75	-4.6	.
COc1ccc(OC)c(S(=O)(=O)NCCCN2CCOCC2)c1 reads -5	0.9	4	-1.4	0.68	2.2	i
Cc1ccc(C)n1-c1ccc(C(=O)NCc2cccnc2)cc1 reads -2	0.8	-4	-4.7	0.72	2.8	.

(continued)
SMILES	ALR inh	HNF4A DNA FP	B2AR ag	LANA-H2B inh	E coli growth	UCH37 inh	FGF22 binding
CNc1nc(N/N=C/c2ccc([N+](=O)[O-])cc2)nc(Nc2ccccc2)n1	-6	-2.4	-5	-0.9	.	.	i
COc1ccc(CNC(=O)c2c(O)c3cccc4c3n(c2=O)CCC4)cc1	.	-0.1	-11	-5.1	0.75	-2.7	.
Cc1ccc(CN2[C@@H](c3ccccc3)COCCS2(=O)=O)cc1	2	8.5	-3	5.0	.	5.3	i
Cc1ccc(NC(=O)c2ccc3c(c2)CCN3S(C)(=O)=O)c(C)c1	-7	-1.1	6	-0.6	.	.	i
COc1cccc(C(=O)NCC(=O)NCc2cc(=O)n(C)c(=O)n2C)c1OC	-3	-2.7	4	0.5	0.66	3.6	i
CCCNC(=O)C(Cc1ccccc1)NC(=O)c1ccccc1 (stereo unspecified)	3	2.4	3	-5.4	0.71	0.1	i
COc1ccccc1N(CC(=O)Nc1ccc(C)cc1Cl)S(=O)(=O)c1cccs1	-3	3.4	2	0.6	0.68	3.2	i
COc1ccc(/C=C/C(=O)Oc2ccc(/C=N/NC(=O)c3ccccc3)cc2)cc1OC	-1	1.4	30	0.8	.	.	.
CCOC(=O)COc1cc(OCC(=O)OCC)c2c(=O)cc(-c3ccccc3)oc2c1	-14	-4.8	1	1.7	0.74	-111	.
CC(=O)Nc1ccc(SCC(=O)c2ccc(Br)s2)cc1	99*	6.7	2	2.4	0.66	12	i
CC(=O)c1ccc(CC2SC(N)=NC2=O)cc1 (stereo unspecified)	-23	2.9	3	5.1	0.64	2.5	i
O=C(NCc1nc2ccccc2[nH]1)C1=C[C@H](c2coc3ccccc3c2=O)C[C@H](OCCCCO)O1	-6	2.2	-1	2.7	.	1.7	i
CCN(CC)CCNC(=O)C(Oc1ccccc1)Oc1ccccc1	-23	4.0	-1	-4.6	0.65	1.6	i
CCn1c(CSc2ncn[nH]2)nc2cc(C(=O)O)ccc21	.	-0.6	-4	-6.6	0.65	-1.8	i
O=C(NCCCN1CCN(Cc2ccccc2)CC1)C1CCN(S(=O)(=O)N2CCC3(CC2)OCCO3)CC1	6	-4.8	-2	-2.7	0.7	3.0	i
COCc1nnc(NC(=O)CS(=O)(=O)c2ccc(C)cc2)s1	-2	1.0	-11	-2.1	0.7	4.5	i
O=C(c1ccccc1)N1CCN(c2nc3ccc([N+](=O)[O-])cc3s2)CC1	-2	2.3	7	-13	0.67	2.3	i
Cc1cccc(C2c3[nH]c4ccccc4c3CCN2C(=O)c2cc(C(C)C)nc(N)n2)n1 (stereo unspecified)	.	4.0	3	0.9	0.71	2.1	.
COCC1CCCCN1C(=O)C1CCN(c2nc(-c3ccccc3)nc3c2CCC3)CC1 (stereo unspecified)	-10	6.7	-9	3.4	0.68	4.7	i
Cn1c(=O)c2c(nc(CN3CCN(C(=O)c4ccco4)CC3)n2CC(=O)C(C)(C)C)n(C)c1=O	-2	2.8	-10	0.7	0.65	1.5	i
COc1ccc(C(=O)Nc2cccc(C(=O)N3CCN(C)CC3)c2)cc1	-1	-0.8	-3	1.9	0.76	3.0	.
O=C(NCN1CCCCC1)c1cccnc1	-10	-4.3	-2	3.3	0.69	2.5	.
COc1ccc(C(=O)N(C)C2CCCCC2)cc1S(=O)(=O)N1CCOCC1	-5	-2.3	0	-6.9	0.68	0.5	i
O=C(CSc1ccc2c(c1)OCCO2)NC(=O)Cc1ccccc1	.	-2.2	-5	-4.0	0.7	1.4	i

Among those listed so far, two have a CF3 group:
SMILES	ALR inh	HNF4A DNA FP	B2AR ag	LANA-H2B inh	E coli growth	UCH37 inh	FGF22 binding
COc1ccc(N2C(=O)NC(NC(=O)c3cccnc3)(C(F)(F)F)C2=O)cc1 (stereo unspecified)	-1	0.9	-289	2.2	0.59	-0.2	i
CCOC(=O)C1CN(S(=O)(=O)c2cccc(C(F)(F)F)c2)c2cc(CC(=O)OC)ccc2O1 (stereo unspecified)	-4	-0.9	7	-4.0	0.69	5.3	.

The list is partial (hit frequency here may not be typical).
